# Autofluor counter: flagged as autofluorescent in microsphere protease counterscreen; compound autofluorescence counterscreen, microsphere flow cytometry; hits give high values; 360,000 compounds, 3.1% hits; AID 624483; fluorescence intensity (no concentration beside the values);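 active = at least 3 SD above the mean of all compounds, about 16000 in these data; inconclusive = too few beads counted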;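 also: 100 nL of 1 mM stock went into each well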
# BJeLR viability: BJeLR cell viability loss; BJeLR (HRASV12) viability, CellTiter-Glo ATP luminescence, 48 h; reference of the scale not given here; inhibition, % (concentration not given with the values); 300,000 compounds, 0.17% hits;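 active = replicate mean above 50%; inconclusive = above 50% but judged a plate artefact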;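 also: 50 nL library stock added to about 25 µL; numbers are from one replicate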
# PrP 5UTR inh: inhibition of PrP 5' UTR reporter expression | inhibition, % (test concentration not listed) | 340,000 compounds, 0.35% hits | cell-based PrP 5' UTR mRNA reporter, plate reader;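 active = every replicate at 50% or more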;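 also: 0 = median of the neutral control wells; tested in H4 reporter cells; numbers are from one replicate; inactives centre near -14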
# Sa ugtP lethal: growth inhibition of S. aureus ugtP deletion strain; S. aureus RN4220 ugtP deletion, OD600 growth, 16 h; some inactives read as strong as hits; growth inhibition, % (concentration not given with the values); 330,000 compounds, 0.54% hits;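 active = z-score under -3 and OD600 up to 0.15 on both plates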;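 also: plate controls were untreated wells for no effect and antibiotic for full effect; wells of about 80 µL received 100 nL stock; the first replicate is given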
# RN4220 kill: S. aureus RN4220 growth inhibition; OD600, 16 h; inhibition, % (concentration not given with the values); 330,000 compounds, 0.33% hits;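 active = z-score of -3 or lower and OD600 up to 0.18 on both plates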;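 also: plate controls were untreated cells for no effect and reference antibiotic for full effect; stock transfer was 100 nL into about 80 µL; one replicate is shown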
# Mtb hypoxia rep: Mtb hypoxia fluorescent reporter inhibition; M. tuberculosis hypoxia-regulated fluorescent reporter, fluorescence; 300,000 compounds, 0.1% hits; fluorescence inhibition, % (no concentration beside the values);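 active = 35 to 45% if threefold the growth effect, above 45% if 1.5-fold the growth effect; inactive = the rest, general growth blockers included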;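 also: wells of about 50 µL received 100 nL stock; 0% = vehicle wells and 100% = reference inhibitor wells; whole bacteria with a GFP reporter of the hypoxia response; strong numbers were not always called active; many hits fall short of the cut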
# Mtb hypoxia rep growth: also measured in Mtb hypoxia rep; calls as there; growth inhibition, %; measured here: M. tuberculosis growth (absorbance);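 0% = vehicle and 100% = reference antibiotic; read after six days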
# The depositor's hits bear a star; ? = inconclusive; . = not tested or not shown.
mol,Mtb hypoxia rep,BJeLR viability,Sa ugtP lethal,Autofluor counter,Mtb hypoxia rep growth,PrP 5UTR inh,RN4220 kill
CCC1COCCS(=O)(=O)N1Cc1cccc(C(F)(F)F)c1 (centres undefined),1,5,11,2908,1,-5,27
CCN(C(=O)CSc1nnc(Cn2nnc3ccccc32)o1)c1nc(C)cs1,.,0,2,3380,.,-2,0.4
Cn1c2c(c(=O)n1-c1ccccc1)CSCC2,-10,-3,13,6153,-8,2,2.3
FC(F)(F)c1ccccc1CCN1CCNCC1,4,-5,3,4041,5,-22,1.8
CCOC(=O)C1=C(C)NC2=C(C(=O)CC(C)(C)C2)C1c1ccc2c(c1)CCCN2C (centres undefined),-6,9,0,3456,8,-10,-6.2
Cc1nn(C)c(C)c1CCC(=O)NC1CC(C)(C)Cc2c1cnn2-c1ccccc1 (centres undefined),-2,-3,4,6413,-1,-31,1.2
CC1SC(c2ccc(Cl)cc2)NC1=O (centres undefined),9,-8,-1,2389,1,-3,-13
O=C(CCc1ccccc1)NCc1ccc2c(c1)OCO2,.,-7,14,2901,.,-22,4.4
O=C(c1csc2c1CCCC2)n1cccn1,11,7,-1,3107,10,.,8.6
CN1CCc2c(sc(NC(=O)c3ccc([N+](=O)[O-])o3)c2C(N)=O)C1,.,0,.,6040,.,91*,.
COC(=O)c1ccc(NC(=O)C2CCN(S(C)(=O)=O)CC2)cc1,-4,2,-8,4242,5,-1,-0.7
Cc1cc(OC(C)C(=O)NCC(O)c2ccccc2)c2c(C)c(C)c(=O)oc2c1 (centres undefined),-7,7,-4,5734,-3,-6,3.0
N#Cc1ccccc1NC(=O)CC1CCCCC1,.,-4,1,2624,.,-1,1.4
Cc1ccccc1Nc1nc(N)nc(COC(=O)c2cccc(S(=O)(=O)NCc3ccccc3)c2)n1,-3,6,-14,2295,16,-26,11
COC(=O)N(C)c1ccc(C(O)(C(=O)OC)C(F)(F)F)cc1 (centres undefined),0,8,4,2202,-5,-14,5.2
CCOc1ccccc1NC(=O)Cn1nnc(C(=O)NCc2cccs2)c1N,.,28,.,5372,.,49,.
O=C(COC(=O)COc1ccccc1)Nc1ccc(Cl)cn1,5,.,4,5639,7,-13,3.3
Cc1cc(=O)nc2c3ccccc3n(CC(=O)NCCCN3CCOCC3)n12,-7,2,0,5793,1,-8,2.2
Cc1ccc(C(=O)c2ccccc2C(=O)OCC(=O)NC(C)(C)C)cc1,16,-4,2,3266,8,-7,2.3
CCOC(=O)c1nn(-c2ccccc2C)c2nc(-c3ccc(C)cc3)c(C#N)c(=O)n12,-2,-2,-3,2662,7,1,5.1
COc1ccc(NC(=O)c2cc(-c3ccc(C)o3)nc3ccccc23)cc1,12,-10,11,4078,-1,-70,4.4
Cn1cccc1CNC(=S)Nc1cc(F)cc(F)c1,5,5,6,4611,0,-8,-0.6
COc1ccccc1CN(Cc1cc2cc(C)ccc2[nH]c1=O)Cc1nnnn1CC1CCCO1 (centres undefined),8,-7,-1,9683,4,-16,4.9
O=C(NCCN1CCOCC1)c1cc(Br)ccc1Cl,1,-1,3,2956,6,-30,-0.9
Cc1nc(-c2ccc(S(=O)(=O)N3CCOCC3)cc2)cs1,8,5,0,5342,-3,-4,3.9
Cc1ccc(-c2nc(C)sc2CC(=O)OCC(=O)Nc2ccc(F)c(Cl)c2)cc1,12,6,15,4372,3,-24,-12
O=C(Cc1cc(=O)oc2cc(O)ccc12)NCC1CCC(C(=O)O)CC1 (centres undefined),1,-7,-5,9139,2,-22,4.9
CC(C)CC(=O)NC(=S)N1CCN(c2ccc([N+](=O)[O-])cc2Cl)CC1,-3,-2,-4,2422,-1,-25,2.1
CC(C)NC(=O)C1CCN(C(=O)N(C)C)CC1,5,6,2,12643,1,4,3.9
NCCCC[C@@H]1NC(=O)c2cc([N+](=O)[O-])cc(I)c2SC[C@@H](C(N)=O)NC(=O)[C@H](Cc2ccc(O)cc2)NC1=O,.,4,.,2819,.,-21,.
CCOc1c(C#N)c(C#N)c2nc(C)cc(C)n12,.,1,-3,2521,.,-12,2.9
CCCc1nc2c(o1)CC(CC(C)SCC)CC2=O (centres undefined),.,1,3,5010,.,-1,0.8
COc1ccc(-n2nc(C(=O)NCC(=O)N(C)Cc3ccccc3)c3ccccc3c2=O)cc1OC,0,-4,0,4011,5,-14,2.1
O=C(c1ccc([N+](=O)[O-])s1)N1CCN(c2ccccn2)CC1,.,-5,6,3911,.,-22,32
CCN(CC)S(=O)(=O)c1ccc(C(=O)NCCOC(=O)c2ccc(F)cc2F)cc1,17,-4,5,3636,10,-35,0.2
COc1ccc(-n2nnnc2CNC(=O)c2ccc3ccccc3c2)cc1,2,-4,-5,?,9,-16,-0.6
CCC(C)/C(C)=N/NC(=O)c1cn(-c2ccccc2)nc1-c1ccccc1 (centres undefined),.,-1,.,1974,.,-17,.
COc1ccc(/C=N/n2c(-c3ccco3)nc3ccccc3c2=O)cc1,.,2,.,4353,.,-13,.
Cc1ccc(NC(=O)CN(C)C(=O)CSc2nnc(C(F)(F)F)n2C)cc1,9,19,2,3177,4,-22,3.1
NS(=O)(=O)c1ccc(CCNC(=O)C2CCCO2)cc1 (centres undefined),16,-1,8,4246,-1,-13,2.5
O=C(Cn1c(N2CCN(c3ccccc3)CC2)nc2ccccc21)c1ccccc1,.,2,-2,3946,.,-14,-4.6
CCOC(=O)Cn1c(-c2nonc2NC(=O)c2ccccc2F)nc2ccccc21,-2,20,-12,4525,-9,25,-4.8
CCN(CC(=O)Nc1c(F)cccc1F)C(=O)c1ccccn1,5,.,8,4581,2,-12,4.9
CCOP(=O)(OCC)c1nc(Cc2ccccc2)oc1NCc1ccccc1,6,-14,9,4096,-9,-8,4.3
Cc1ccccc1OCC(=O)OCC(=O)NCC1CCCCC1,12,.,3,3407,10,-30,6.5
COc1ccc(CCNC(=O)c2ccc(N(C)S(=O)(=O)c3ccccc3)cc2)cc1,9,1,0,4715,4,-4,0.7
CCOC(=O)C(NC(=O)c1ccccc1OCC)(Nc1ncccn1)C(F)(F)F (centres undefined),.,-1,11,2260,.,-5,5.3
O=C(C1COc2ccccc2O1)N1CCCC1 (centres undefined),.,-3,-6,20678*,.,-24,-2.3
Cc1ccc(-c2csc(NC(=O)/C=C/c3cccs3)n2)cc1C,5,-3,21,2106,-3,-10,-12
Cc1ccc(C(=O)NCCC(=O)NCc2ccco2)cc1,-2,-3,4,5107,3,-17,1.0
Cc1cccc2cc3c(NC(=O)CC(C)C)nn(C)c3nc12,8,-1,8,2436,2,-16,-1.1
O=C(CN(C(=O)c1csnn1)c1cccc2ccccc12)NC1CCCC1,10,10,9,5143,0,-2,6.0
O/C(=C\Sc1nnc(Cc2ccccc2)o1)c1ccc(F)cc1,7,-9,1,12761,14,-5,4.1
CCOc1cc(C)c(-c2onc(C(F)(F)F)c2-c2csc(C)n2)c(O)c1,5,-9,-10,22729*,5,-33,1.6
O=C1c2nc3cc(-c4ccccc4)[nH]n3c(=O)c2CN1Cc1ccccc1,-1,3,-2,.,-1,.,4.5
CSc1ncc(C(=O)Nc2ccccc2)cn1,-5,6,5,3336,-6,-25,-1.1
COc1ccccc1NC(=O)CSc1nnc(CC(=O)Nc2ccccc2)n1C,6,-7,0,9962,7,-4,4.5
Cc1cc2cc(C)c3nnc(SCC(=O)NCc4ccc5c(c4)OCO5)n3c2cc1C,12,-5,25,9473,14,-12,6.4
O=C(NC(CO)Cc1ccccc1)c1ccccc1 (centres undefined),-1,5,3,2160,0,26,1.4
COc1ccc(OC)c(NC(=O)CCc2nnc3ccc(N4CCC(C)CC4)nn23)c1,11,3,3,3940,-1,-26,1.2

# New compounds follow
mol,Mtb hypoxia rep,BJeLR viability,Sa ugtP lethal,Autofluor counter,Mtb hypoxia rep growth,PrP 5UTR inh,RN4220 kill
O=C(O)CC1CCCC(c2ccccc2)C1=O (centres undefined),10,-8,2,9443,7,-11,9.9
COc1ccc(CC(=O)NCc2nnc(SCC(=O)Nc3ccc(OC)cc3)n2C)cc1,10,2,15,2416,11,-14,-1.2
CCCOc1cccc(C(=O)NC(=S)Nc2cccc(C(F)(F)F)c2)c1,4,0,-3,8404,3,-16,0.8
CCS(=O)(=O)n1nc(-c2ccc(OC)cc2)nc1SC,.,2,0,4635,.,-31,0.9
CCOc1ccc(CCNC(=O)CCNS(=O)(=O)c2ccc3c(c2)CCN3C(C)=O)cc1OCC,7,10,4,5625,9,7,3.5
COc1cc(OC)cc(C(=O)OCC(=O)Nc2ccc(F)cc2F)c1,12,3,2,3518,1,-5,-1.5
C[C@@H]1CN([C@H](C)CO)C(=O)c2cc(NC(=O)Cc3ccccc3)ccc2O[C@H]1CN(C)Cc1ccc(Oc2ccccc2)cc1,-11,.,-5,4484,11,-20,12
Cc1cc(C)c(C#N)c(SCc2nc3ccccc3[nH]2)n1,6,-9,-1,6635,8,-107,4.6
COc1ccc(CNS(=O)(=O)c2ccc(Br)s2)cc1,8,-1,8,4337,-3,-16,2.9
CCn1c(SCC(=O)N2CCCc3ccccc32)nnc1-c1c[nH]c2ccccc12,20,-8,3,3491,16,-5,1.8
CCCCN(CC(=O)NCc1ccc(F)cc1)C(=O)c1ccco1,16,6,6,3314,4,3,7.0
C=C(Cl)COc1ccc2c(CCCC)cc(=O)oc2c1,.,6,1,2484,.,-16,3.7
Cc1ccc(NC(=O)c2ccc(CNc3c(N4CCOCC4)c(=O)c3=O)cc2)cc1,0,0,9,5079,0,-13,10
Cn1nc(C(F)(F)F)c(-c2ccc(Br)cc2)c1NC(=O)C1CCC1C(=O)O (centres undefined),8,-6,-5,5571,-2,-30,1.4
CCOC(=O)c1c(N=Cc2ccc(C)cc2O)sc2c1CCC2,-3,.,10,.,5,.,2.3

# Some of the entries so far, as labelled records.
> Cc1cc(C)c(C#N)c(SCc2nc3ccccc3[nH]2)n1
  Mtb hypoxia rep: 6
  BJeLR viability: -9
  Sa ugtP lethal: -1
  Autofluor counter: 6635
  Mtb hypoxia rep growth: 8
  PrP 5UTR inh: -107
  RN4220 kill: 4.6
> COc1ccc(CNS(=O)(=O)c2ccc(Br)s2)cc1
  Mtb hypoxia rep: 8
  BJeLR viability: -1
  Sa ugtP lethal: 8
  Autofluor counter: 4337
  Mtb hypoxia rep growth: -3
  PrP 5UTR inh: -16
  RN4220 kill: 2.9
> CCn1c(SCC(=O)N2CCCc3ccccc32)nnc1-c1c[nH]c2ccccc12
  Mtb hypoxia rep: 20
  BJeLR viability: -8
  Sa ugtP lethal: 3
  Autofluor counter: 3491
  Mtb hypoxia rep growth: 16
  PrP 5UTR inh: -5
  RN4220 kill: 1.8
> CCCCN(CC(=O)NCc1ccc(F)cc1)C(=O)c1ccco1
  Mtb hypoxia rep: 16
  BJeLR viability: 6
  Sa ugtP lethal: 6
  Autofluor counter: 3314
  Mtb hypoxia rep growth: 4
  PrP 5UTR inh: 3
  RN4220 kill: 7.0

# (cont.)
mol,Mtb hypoxia rep,BJeLR viability,Sa ugtP lethal,Autofluor counter,Mtb hypoxia rep growth,PrP 5UTR inh,RN4220 kill
Cc1cc(C(C)(C)C)ccc1OCCn1ccnc1,25,-9,-2,4837,27,-9,4.3
c1ccc(COc2cncc(-c3cccnc3)c2)cc1,11,.,6,2985,9,-3,6.9
O=C(Nc1ccnn1C1CCN(CC2CC=CCC2)CC1)c1ccccc1 (centres undefined),-7,-2,-9,8383,1,-20,-8.5
O=C(COC(=O)[C@@H]1CCCN1C(=O)c1cccs1)NCCc1ccccc1,12,8,-1,9715,18,-1,2.6
Cc1cc(C)c2ccc3c(C)c(C)nc3c2[nH]1,-30,.,7,3459,-2,-15,10
Nc1ccccc1NC1=CC(=O)CC(c2ccccc2)C1 (centres undefined),12,6,6,.,9,.,4.0
CCOC(=O)c1sc(NC(=O)COC(=O)CNC(=O)c2ccco2)c(C(=O)OCC)c1C,9,-2,-2,2421,9,-5,6.3
O=C(Nc1ccncc1)c1cccc(S(=O)(=O)N2CCN(c3ccc(F)cc3)CC2)c1,2,-8,-3,4818,4,7,-2.5
C#CCOCCOCCOCCNc1nc(N2CCN(C(=O)CCCCCCCCCCNC(=O)Cn3cc(CC(C)O)nn3)CC2)nc(N2CCN(C(=O)CCCCCCCCCCNC(=O)C(CCCCN)n3cc(CCCC(=O)O)nn3)CC2)n1 (centres undefined),5,.,2,.,9,.,6.4

# High-throughput results deposited in PubChem by several laboratories.
